miR-21 FLuc: qHTS Assay for Modulators of miRNAs and/orActivators of miR-21; 340,000 tested, under 10 active; HeLa miR-21 FLuc reporter, luciferase, 48 h; AID 2288, 2010; Potency, µM (top dose mostly 38.3 µM), for the others: top-dose reporter change, positive = more light; active = well fitted rising curve with a large enough effect; inconclusive = small, poorly fitted or top-dose-only effect; inactive = no such curve, though single readings can be large or run the other way;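 also: % of control where 0% means no effect; miR-21 action dims this reporter so a rising signal means less miR-21 action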
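Compounds were titrated across several concentrations (up to approximately 40 uM) and incubated 48 hours with HeLa miR-21-FLuc reporter cells (miR-21 target sequence downstream of FLuc, endogenous miR-21). Readout was firefly luciferase luminescence after lytic detection reagent.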
* = called active by the depositor; ? = inconclusive; [ ] = another dose, or the depositor's remark.

| canonical_smiles | miR-21 FLuc |
| --- | --- |
| Cc1ccc2c(c1)c1c(c(=O)n(-c3ccccc3)c(=O)n1CC(=O)NCCC1=CCCCC1)n2C | 0% |
| COc1ccc(OC)c(CNS(=O)(=O)c2ccc(-c3cc(C(F)(F)F)on3)s2)c1 | 17% |
| COCCCNC(=O)c1cnc2sc(N3CCCCCC3)nn2c1=O | -11% |
| COc1ccccc1NC(=O)CN(c1cc(C)cc(C)c1)S(=O)(=O)c1c(C)[nH]c(=O)[nH]c1=O | 1% |
| NS(=O)(=O)c1ccc(CCNC(=O)C2COc3ccccc3C2)cc1 (stereo unspecified) | -8% |
| COc1ccc(NC(=O)COc2ccc(S(=O)(=O)NC3CCCCC3)cc2)c(OC)c1 | -1% |
| COc1cccc(C2CC(=O)Nc3cc(OC)c(OC)c(OC)c32)c1OC(C)C (stereo unspecified) | 4% |
| CC(=O)N1CCCc2cc(S(=O)(=O)Nc3ccc(C)c(F)c3)ccc21 | 0% |
| COc1cccc(C(=O)NC2CC(=O)N(c3ccc4c(c3)OCCO4)C2)c1OC (stereo unspecified) | -10% |
| COc1ccc(S(=O)(=O)N(Cc2nc(-c3ccccc3)no2)C2CCCCC2)cc1 | 3% |
| COc1ccc(Cl)cc1NC(=O)c1ccc2c(c1)CCN2S(C)(=O)=O | 23% |
| CCCCOc1cccc(C(=O)Nc2ccc3oc(-c4cccnc4)nc3c2)c1 | -2% |
| CCOc1ccc(CN2C(=O)c3ccccc3Sc3ccc(C(=O)NCc4ccc(C)cc4)cc32)cc1 | 0% |
| Cc1oc(-c2ccccc2F)nc1Cn1c(SCc2cccc(C(F)(F)F)c2)nc2ccncc21 | -3% |
| COc1ccc(Cl)cc1NC(=O)Cn1c(=O)c2ccccc2n2nncc12 | 0% |
| COc1ccc(-n2ncc(C(=O)N3CCN(C(=O)c4ccco4)CC3)c2C2CCN(C(=O)OC(C)(C)C)CC2)cc1 | 0% |
| CCOc1ccc(NC(=O)CSc2nc(-c3ccc(OC)cc3)nc3c2Cc2c(CO)cnc(C)c2O3)cc1 | -12% |
| COc1cccc(CNC(=O)Cc2csc3nc(-c4ccccc4)cn23)c1 | 0% |
| Cc1cc(Br)ccc1NC(=O)C(Cc1ccccc1)NS(=O)(=O)c1ccc(Br)s1 (stereo unspecified) | 4% |
| CCOc1ccc(-c2nn(-c3ccccc3)cc2C2NC(=O)NC(C)=C2C(=O)OC(C)C)cc1 (stereo unspecified) | 28% |
| COc1cccc(-c2nnc3n(Cc4ccccc4Cl)c(=O)c4ccccc4n23)c1O | -1% |
| Cc1ccc(Cn2c(=O)c3ccccc3n3c(-c4ccccc4)nnc23)cc1 | -5% |
| CCN1CCC(N(Cc2ccc(F)cc2)C(=O)Nc2cccc(C(F)(F)F)c2)CC1 | ? |
| COc1ccc(CCNC(=O)CCCCn2c(=O)c3ccccc3n(Cc3cc(C)ccc3C)c2=O)cc1OC | -7% |
| Cc1ccc(NC(=O)C2CCCN(c3ncnc4c3nc3n4CCCCC3)C2)c(Br)c1 (stereo unspecified) | 0% |
| CCOCCCNC(=O)c1ccc(-n2c(-c3ccccc3)cc3c2CCCC3)cc1 | ? |
| CCOC(=O)c1c(C)[nH]c(CCC(=O)NCc2ccccc2C)c1C | -6% |
| CCOC(=O)c1cc(-c2ccc(OC)c(S(=O)(=O)NCc3ccccc3Cl)c2)on1 | 0% |
| Cc1ccccc1CNC(=O)c1ccc2nc(C(C)C)oc2c1 | -15% |
| COC(=O)c1cc(C)nc2c1c(=O)nc(SCc1ccccc1Cl)n2C1CC1 | -4% |
| Cc1ccccc1NC(=O)CSc1cn(CC(=O)N(C(C)C)C(C)C)c2ccccc12 | -2% |
| Cc1ccc(N2CCN(c3cc(C)nc4c(-c5ccc(Cl)cc5)c(C)nn34)CC2C)cc1 (stereo unspecified) | 4% |
| COc1ccc(NC(=O)c2c(NCc3cccc(OC)c3)sc3c2CCC3)cc1 | -2% |
| COC(=O)c1ccc(CN(Cc2ccc(OC)c(OC)c2)S(=O)(=O)c2ccc(F)c(C(=O)Nc3cc(C)ccc3C)c2)cc1 | -2% |
| COC(=O)c1c(-c2cccs2)csc1NC(=O)c1cc(OC)cc(OC)c1 | -16% |
| Cc1ccccc1Nc1c(-c2ccco2)nc2c(C)cccn12 | 24% |

Some of these compounds in order of heavy-atom count, high to low.
| canonical_smiles | miR-21 FLuc |
| --- | --- |
| COC(=O)c1ccc(CN(Cc2ccc(OC)c(OC)c2)S(=O)(=O)c2ccc(F)c(C(=O)Nc3cc(C)ccc3C)c2)cc1 | -2% |
| Cc1ccc(NC(=O)C2CCCN(c3ncnc4c3nc3n4CCCCC3)C2)c(Br)c1 (stereo unspecified) | 0% |
| CCOCCCNC(=O)c1ccc(-n2c(-c3ccccc3)cc3c2CCCC3)cc1 | ? |
| COc1ccc(NC(=O)c2c(NCc3cccc(OC)c3)sc3c2CCC3)cc1 | -2% |

Entries shown so far with an aryl thioether with sulfur outside any ring, in the order listed:
| canonical_smiles | miR-21 FLuc |
| --- | --- |
| Cc1oc(-c2ccccc2F)nc1Cn1c(SCc2cccc(C(F)(F)F)c2)nc2ccncc21 | -3% |
| CCOc1ccc(NC(=O)CSc2nc(-c3ccc(OC)cc3)nc3c2Cc2c(CO)cnc(C)c2O3)cc1 | -12% |
| COC(=O)c1cc(C)nc2c1c(=O)nc(SCc1ccccc1Cl)n2C1CC1 | -4% |
| Cc1ccccc1NC(=O)CSc1cn(CC(=O)N(C(C)C)C(C)C)c2ccccc12 | -2% |

(more compounds)
| canonical_smiles | miR-21 FLuc |
| --- | --- |
| O=C(Cn1cc(SCc2c(F)cccc2Cl)c2ccccc21)N1CCCCCC1 | 27% |
| CCn1c(C)c(C2N3CC4(C)CN2CC(CC)(C3)C4=O)c2ccccc21 (stereo unspecified) | 9% |
| COc1ccccc1NC(=O)C1=C(C)Nc2nc(SCc3ccccc3F)nn2C1c1cccs1 (stereo unspecified) | -11% |
| O=C(NCCSCc1ccc(Cl)cc1)C1CCN(S(=O)(=O)Cc2ccccc2)CC1 | -1% |
| CC(=O)c1cccc(NS(=O)(=O)c2cccc(S(=O)(=O)c3ccc(Br)cc3)c2)c1 | 20% |
| Cc1ccc(CCNC(=O)C2CCN(Cc3nc(-c4ccccc4C)oc3C)CC2)cc1 | 9% |
| O=c1c(N2CCN(c3cccc(C(F)(F)F)c3)CC2)csc2ccc(Cl)cc12 | -12% |
| O=C(C1CCCN(S(=O)(=O)c2cccc3nonc23)C1)N1CCN(c2ccccc2F)CC1 (stereo unspecified) | -3% |
| Cc1cccc(C(=O)Nc2ccccc2C(=O)OCc2cc(=O)n3nc(C4CC4)sc3n2)c1 | 5% |
| CCOc1ccc(CNC(=O)Cn2nc(C)c3nn(-c4ccc(Cl)cc4)c(C)c3c2=O)cc1OC | 1% |
| CCC(=O)Nc1sc2c(c1C(=O)Nc1ccc(OC)cc1)CCC(C(C)(C)C)C2 (stereo unspecified) | 3% |
| CCN(CC)S(=O)(=O)c1ccc(-c2csc(=Nc3cccc(C(F)(F)F)c3)n2Cc2ccc3c(c2)OCO3)cc1 | -3% |
| O=C(Nc1ccccc1Cl)N1CCC(CN2CCCC2)CC1 | -3% |
| Cc1ccc(-c2nnc(Nc3ccc(C(N)=O)cc3)c3ccccc23)cc1S(=O)(=O)N1CCCCC1 | 2% |
| COc1cccc(CSc2nc3n(n2)C(c2cccc(F)c2)C(C(=O)Nc2ccccc2C)=C(C)N3)c1 (stereo unspecified) | -1% |
| O=C(COC(=O)c1cc(-c2ccccc2)nc2ccccc12)c1ccc(Br)cc1 | -12% |
| CCCNC(=O)C1Cc2cc(S(=O)(=O)N3CCCCCC3)ccc2N1C(C)=O (stereo unspecified) | 1% |
| Cc1ccc(S(=O)(=O)c2cn(Cc3ccc(F)cc3)c3cc(F)c(F)cc3c2=O)cc1 | 1% |
| Cc1ccc(CN(C(=O)c2ccccc2Br)C2CCS(=O)(=O)C2)o1 (stereo unspecified) | -1% |
| COc1cccc(NC(=O)CSC2=Nc3ccccc3C3=NC(CC(=O)NCCc4ccccc4)C(=O)N23)c1 (stereo unspecified) | 2% |
| CN(C)S(=O)(=O)c1ccc2c(c1)nnn2CCNC(=O)Nc1ccc(Cl)cc1 | 3% |
| CC(=O)N1CCCc2cc(S(=O)(=O)N3CCCC(C(=O)Nc4cc(Cl)ccc4C)C3)ccc21 (stereo unspecified) | 29% |
| CC1=C(c2ccc(C)c(C)c2)S(=O)(=O)N(Cc2ccc(C(=O)NC(C)c3ccccc3)cc2)C1=O (stereo unspecified) | 0% |
| CCCS(=O)(=O)N1CC(=O)N(c2cccc(Cl)c2)C(C)(C(=O)NC2CCCCC2)C1 (stereo unspecified) | -5% |
| COc1cc2c(cc1OC)C1O[C@](c3ccsc3)(C2)Oc2c1c(=O)oc1ccc(F)cc21 | -21%[7.66 µM] |
| Cc1ccc(C)c(Cn2c(C)c(CNCc3ccc(F)cc3)c(C(=O)O)c2C)c1 | 5% |
| CCCC(=O)NC(C)c1nc2ccccc2n1Cc1ccccc1 (stereo unspecified) | -3% |
| COc1ccc(-c2nc(SCC(=O)Nc3ccccc3)c(-c3ccc(F)cc3)[nH]2)cc1OC | 27% |
| COc1ccc(-c2nc3cc(NC(=O)COc4ccc(F)cc4)ccc3o2)cc1 | -21% |
| Cc1ccc(-n2nnnc2CNC(=O)c2ccccc2F)cc1C | -7% |
| CC(C)c1ccc(NC(=O)C2CCN(S(=O)(=O)c3ccc(Br)s3)CC2)cc1 | 9% |
| O=S(=O)(c1ccc(-c2cc(C(F)(F)F)on2)s1)N1CCN(c2cccc(Cl)c2)CC1 | 2% |
| CC(=O)N1CCc2c(sc3c2c(=O)n(-c2ccccc2C)c(=O)n3CC(=O)c2ccccc2)C1 | -1% |
| CCc1ccccc1NC(=O)Cn1nnc(C(=O)Nc2ccc(OC)c(OC)c2)c1N | -10% |
| Cc1cc(C)cc(NC(=O)CCC(=O)N2Cc3ccccc3Oc3ncccc32)c1 | 1% |
| COC(=O)c1ccccc1NC(=O)c1sc2nc(C)cc(C)c2c1NC(=O)c1ccccc1Cl | -7% |
| Cc1[nH]c2ccccc2c1SCCNC(=O)c1ccc(F)cc1 | ? |
| C=CCC(CC=C)(CNC(=O)C(=O)Nc1cccc(C(F)(F)F)c1)c1ccccc1 | 7% |
| Cc1ccc(C)c(N2CCN(C(=O)CCc3c(C)nc4c(c3C)c(=O)n(C)c(=O)n4C)CC2)c1 | 6% |
| CCCn1c2ccccc2c2cnn(CC(=O)N3CCN(c4ccccc4)CC3)c(=O)c21 | -2% |
| COc1ccc(C(CC(=O)Nc2ccc(C)cn2)N2Cc3ccccc3C2=O)cc1OC (stereo unspecified) | -9% |
| O=C(c1ccc2c(c1)N(Cc1ccc(Cl)cc1)C(=O)c1ccccc1S2=O)N1CCCCC1 (stereo unspecified) | 2% |
| Cc1ccccc1S(=O)(=O)Cc1ccc(C(=O)NCc2ccccc2Cl)o1 | -3% |
| CCOCCc1nn2c(=O)cc(COC(=O)c3ccccc3NC(=O)CC(C)C)nc2s1 | -9% |
| Cn1c(=O)c2c(-c3ccc(Cl)cc3)n(Cc3ccccc3)cc2n(C)c1=O | 4% |
| Cc1ccc(Cn2cc(C(=O)c3ccc4c(c3)OCO4)c(=O)c3cc(C)ccc32)cc1 | 28% |
| CC(=O)N1CCCc2cc(S(=O)(=O)N3CCC(C(=O)Nc4cccc(Cl)c4C)CC3)ccc21 | -1% |
| COc1cccc(NC(=O)CCCn2c(=O)c3cccn3c3cccnc32)c1 | -19% |
| COc1ccc(OC)c(NC(=O)Cc2c(C(=O)O)n(C)c3ccc(C)cc23)c1 | -7% |
| Cc1c2cnn(CC(=O)NCc3ccccc3)c(=O)c2c(C)n1Cc1cccc(Cl)c1 | ? |
| Cc1ccc(N(C)S(=O)(=O)c2nnc(NC(=O)CC(C)C)s2)cc1 | -9% |
| O=S(=O)(Nc1cc(F)ccc1F)c1ccc2[nH]c3c(c2c1)CCCCC3 | -6% |
| CCOC(=O)C1CCCN(C(=O)Cn2ncc3c4ccccc4n(Cc4ccc(F)cc4)c3c2=O)C1 (stereo unspecified) | ? |
| Cc1ccc(N(C)S(=O)(=O)c2ccc3c(c2)C(C)(C)C(=O)N3C)cc1C | 8% |
| Cc1cc(C)n(CCc2nc3c4ccccc4nc(N4CCN(c5cccc(C)c5C)CC4)n3n2)n1 | 4% |
| Cc1ccc(Cl)cc1NC(=O)CSc1nc2c(c(=O)[nH]1)CN(Cc1ccccc1)CC2 | 15% |
| CCc1ccccc1-n1nnc(-c2nsc(NC(=O)c3ccc(C)c(C)c3)n2)c1C | ? |
| O=C(Nc1ccccc1[N+](=O)[O-])c1csnn1 | -17% |
| COc1ccc(-c2c3c(=O)n(C)c(=O)n(C)c3c3n2-c2ccccc2NC3c2ccc(O)cc2O)cc1 (stereo unspecified) | 2% |
| Cc1cc2c(cc1NS(=O)(=O)c1ccc(Br)cc1)n(C)c(=O)c(=O)n2C | 3% |

The list continues:
| canonical_smiles | miR-21 FLuc |
| --- | --- |
| CCOC(=O)c1c(C)c(-c2ccccc2)n(CC(=O)NC2CCCCCC2)c1C | -4% |
| Cn1c(SCC(=O)N2CCOCC2)ncc(C(=O)Nc2ccccc2)c1=O | -19% |
| Cc1ccc(C)c(Nc2nn3c(=O)c4cc5c(cc4nc3s2)OCO5)c1 | -13% |
| COc1cc(/C=C/c2ccc3cccc(O)c3n2)c(Br)cc1O | ? |
| O=C1CN(C(=O)COc2ccccc2)C(c2ccc(F)cc2)c2cc(Br)ccc2N1 (stereo unspecified) | 23% |
| Fc1ccc([C@@H]2Nc3ccccc3[C@@H]3C=CC[C@@H]32)cc1 | 0% |
| CS(=O)(=O)c1cccc(-c2nnc(NC(=O)c3ccc4c(c3)OCCO4)o2)c1 | -4% |
| CCOc1ccccc1C1CC(=O)NC(C)=C1C(=O)OCc1ccc(C)cc1 (stereo unspecified) | 6% |
| COc1ccc(OC)c(-n2cnc3cc(C(=O)NCCc4ccccc4)ccc32)c1 | -35% |

Only part of the results is shown, so the mix of outcomes need not match the whole.
